From PubChem BioAssay
Sa RN4220 lethal: kills Staphylococcus aureus RN4220; S. aureus RN4220 growth, OD600, 16 h; inhibition, % (no concentration beside the values); 0.33% of 330,000 active;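 active = z-score of -3 or lower and OD600 up to 0.18 on both plates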;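 also: plate controls were untreated cells for no effect and reference antibiotic for full effect; stock transfer was 100 nL into about 80 µL; one replicate is shown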
Mtb hypoxia rep: Mtb hypoxia fluorescent reporter inhibition; M. tuberculosis hypoxia-regulated fluorescent reporter, fluorescence; fluorescence inhibition, % (test concentration not listed); 0.1% of 300,000 active;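 active = 35 to 45% if threefold the growth effect, above 45% if 1.5-fold the growth effect; inactive = the rest, general growth blockers included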;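 also: wells of about 50 µL received 100 nL stock; 0% = vehicle wells and 100% = reference inhibitor wells; whole bacteria with a GFP reporter of the hypoxia response; strong numbers were not always called active; many hits fall short of the cut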
PrP 5UTR inh: inhibition of PrP 5' UTR reporter expression; cell-based PrP 5' UTR mRNA reporter, plate reader; inhibition, % (test concentration not listed); 0.35% of 340,000 active;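 active = every replicate at 50% or more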;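 also: 0 = median of the neutral control wells; tested in H4 reporter cells; numbers are from one replicate; inactives centre near -14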
Bead autofluor: flagged as autofluorescent in microsphere protease counterscreen | compound autofluorescence counterscreen, microsphere flow cytometry; stronger effect = higher value | AID 624483 | 3.1% of 360,000 active | fluorescence intensity (test concentration not listed);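 active = at least 3 SD above the mean of all compounds, about 16000 in these data; inconclusive = too few beads counted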;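 also: 100 nL of 1 mM stock went into each well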
BJeLR lethal: kills HRASV12-expressing BJeLR cells; BJeLR (HRASV12) viability, CellTiter-Glo ATP luminescence, 48 h; reference of the scale not given here; inhibition, % (no concentration beside the values); 0.17% of 300,000 active; AID 1554;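 active = replicate mean above 50%; inconclusive = above 50% but judged a plate artefact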;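 also: 50 nL library stock added to about 25 µL; numbers are from one replicate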
ugtP null kill: kills S. aureus RN4220 lacking UgtP. S. aureus RN4220 ugtP deletion, OD600 growth, 16 h; some inactives read as strong as hits. growth inhibition, % (concentration not given with the values). 0.54% of 330,000 active. AID 1259309;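 active = z-score under -3 and OD600 up to 0.15 on both plates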;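 also: plate controls were untreated wells for no effect and antibiotic for full effect; wells of about 80 µL received 100 nL stock; the first replicate is given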
Mtb hypoxia rep growth: further read-out of Mtb hypoxia rep, marked with its call; growth inhibition, %; measured here: M. tuberculosis growth (absorbance);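 0% = vehicle and 100% = reference antibiotic; read after six days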
* marks the source's active call; other numbers are inactive results; ? = inconclusive; · = no result given.

SMILES | Sa RN4220 lethal | Mtb hypoxia rep | Mtb hypoxia rep growth | PrP 5UTR inh | Bead autofluor | BJeLR lethal | ugtP null kill
CCc1ccc(Oc2nc([N+](=O)[O-])nn2C)cc1 | 6.9 | · | · | -13 | 3321 | 1 | 4
COc1ccc(C(=O)Nc2c(N)nc(SCC(=O)N3CCCCCC3)[nH]c2=O)cc1OC | -12 | -2 | 9 | 0 | 4372 | -2 | -3
Cc1noc(C)c1COC(=O)CCc1nc2ccccc2s1 | 3.2 | 8 | 4 | -36 | 9011 | -14 | -1
COc1ccc2nc(NC(=O)C3CC(=O)N(c4ccc5c(c4)OCCO5)C3)sc2c1 (stereo not given) | 1.6 | 9 | 4 | -6 | ? | · | -1
Cc1nc2sc(C(c3ccco3)N3CCN(c4cccc(Cl)c4)CC3)c(O)n2n1 (stereo not given) | 1.8 | 5 | 2 | -31 | 4354 | -6 | -1
COC(=O)c1cc(NC(=O)CC2SC(=Nc3ccccc3)N(CCc3c[nH]c4ccccc34)C2=O)cc(C(=O)OC)c1 (stereo not given) | -12 | 6 | 12 | -17 | 4091 | -9 | -24
CN1CCN(c2ccc(NC(=O)c3ccccc3Br)cc2)CC1 | 2.1 | · | · | -63 | 2634 | 7 | 1
COc1cc2c(cc1O)[C@@H]1Cc3cc(OC)c(OC)cc3C(C2)N1C | · | · | · | -11 | 3370 | -8 | ·
CCOc1ccc(S(=O)(=O)N2CCOCC2)cc1NC(=O)CN1C(=O)NC(C)(c2ccc(C)cc2)C1=O (stereo not given) | 1.5 | 4 | 7 | -19 | 6040 | · | 6
CCOC(=O)Cc1cc(=O)n2[nH]c(C)c(-c3ccc(Cl)cc3)c2n1 | 40 | 6 | 3 | -4 | 10606 | -5 | 16
O=C(/C=C/c1ccco1)NC(=S)Nc1cccc([N+](=O)[O-])c1 | -1.4 | 5 | 8 | -3 | 2072 | -12 | 16
O=Cc1cn(-c2ccccc2)nc1-c1ccccc1 | 4.3 | -5 | 5 | -20 | 3377 | -7 | 1
S=C(NCCc1ccccc1)NCc1cccc(Cl)c1 | -7.8 | 11 | 16 | -29 | 6188 | 0 | -6
CCOc1ccc(C=NOCC(=O)NCc2ccc3c(c2)OCO3)cc1OC | 2.6 | 15 | 2 | · | · | · | 5
O=C(NCC1(N2CCCCC2)CCCCC1)c1ccc(NS(=O)(=O)c2ccccc2)cc1 | -0.1 | -10 | -3 | -16 | 7238 | -1 | 4
Cc1ccc(-n2c(SCC(=O)N3CCOCC3)nc(O)cc2=O)cc1 | 2.3 | 5 | 1 | -13 | 6631 | -4 | 2
CC(=O)Cn1c(CN2CCCCC2)nc2ccccc2c1=O | 5.7 | 18 | 11 | -21 | 4231 | 16 | 7
CCOC(=O)c1oc2ccc(Cl)cc2c1NC(C)=O | 4.7 | 7 | 14 | 8 | 3103 | 6 | 4
CCCn1c2ccccc2c2cnn(CC(=O)NC3CCC(C)CC3)c(=O)c21 (stereo not given) | 2.8 | 7 | 1 | -16 | ? | -9 | 3
CCc1nnc(NS(=O)(=O)c2ccc(NCc3cc(Br)ccc3O)cc2)s1 | 1.8 | -1 | -5 | 7 | 3821 | 5 | 11
CCCCNC(=O)CSc1nc2ccccc2n1S(=O)(=O)c1ccc(Cl)cc1 | 5.0 | 8 | -4 | -17 | 2327 | -16 | 2
CC(=O)N1C(Cc2ccccc2)C=C[C@]1(C)C(=O)NCCc1c[nH]c2ccccc12 (stereo not given in full) | 8.5 | 13 | 10 | · | · | · | 14
N/C(=N\N=C/c1ccc(Br)cc1)N/N=C\c1ccc(Br)cc1 | · | · | · | -15 | 4232 | -4 | ·
Cc1cc2oc(C(=O)N3CCN(Cc4ccccc4)CC3)c(C)c2cc1C | -2.4 | -5 | 12 | -30 | 5950 | -4 | 19
O=C(NCCc1cccc(C(F)(F)F)c1)C1CCC(=O)N(Cc2ccc(Cl)cc2)C1 (stereo not given) | -0.5 | -6 | 3 | -13 | 5389 | -8 | -5
CCN1C(=O)c2cccc3c(S(=O)(=O)N4CCNCC4)ccc1c23 | 3.0 | 3 | 3 | 0 | 5452 | · | 6
COc1ccc(C(=O)/C=C/C(=O)N(CC(=O)NCCC(C)C)Cc2cccs2)c(O)c1 | 8.2 | -5 | -8 | -44 | 3728 | 13 | 0
NC(=O)Cn1cnc2nc3n(c2c1=O)CCC3 | 1.0 | -17 | 2 | -33 | 3797 | 1 | 1
CC1CCN(C(=O)C2CCN(S(=O)(=O)c3cccs3)CC2)CC1 | 6.6 | 9 | 1 | -25 | 4914 | 3 | 6
CC(NC(=O)c1ccc(F)cc1F)C1CC2CCC1C2 (stereo not given) | 6.5 | · | · | -2 | 4346 | -6 | 6

Given with tabs: 10 of the compounds above.
molecule	Sa RN4220 lethal	Mtb hypoxia rep	Mtb hypoxia rep growth	PrP 5UTR inh	Bead autofluor	BJeLR lethal	ugtP null kill
CCc1ccc(Oc2nc([N+](=O)[O-])nn2C)cc1	6.9	·	·	-13	3321	1	4
COc1ccc(C(=O)Nc2c(N)nc(SCC(=O)N3CCCCCC3)[nH]c2=O)cc1OC	-12	-2	9	0	4372	-2	-3
Cc1noc(C)c1COC(=O)CCc1nc2ccccc2s1	3.2	8	4	-36	9011	-14	-1
COc1ccc2nc(NC(=O)C3CC(=O)N(c4ccc5c(c4)OCCO5)C3)sc2c1 (stereo not given)	1.6	9	4	-6	?	·	-1
Cc1nc2sc(C(c3ccco3)N3CCN(c4cccc(Cl)c4)CC3)c(O)n2n1 (stereo not given)	1.8	5	2	-31	4354	-6	-1
COC(=O)c1cc(NC(=O)CC2SC(=Nc3ccccc3)N(CCc3c[nH]c4ccccc34)C2=O)cc(C(=O)OC)c1 (stereo not given)	-12	6	12	-17	4091	-9	-24
CN1CCN(c2ccc(NC(=O)c3ccccc3Br)cc2)CC1	2.1	·	·	-63	2634	7	1
COc1cc2c(cc1O)[C@@H]1Cc3cc(OC)c(OC)cc3C(C2)N1C	·	·	·	-11	3370	-8	·
CCOc1ccc(S(=O)(=O)N2CCOCC2)cc1NC(=O)CN1C(=O)NC(C)(c2ccc(C)cc2)C1=O (stereo not given)	1.5	4	7	-19	6040	·	6
CCOC(=O)Cc1cc(=O)n2[nH]c(C)c(-c3ccc(Cl)cc3)c2n1	40	6	3	-4	10606	-5	16

Next section:
SMILES | Sa RN4220 lethal | Mtb hypoxia rep | Mtb hypoxia rep growth | PrP 5UTR inh | Bead autofluor | BJeLR lethal | ugtP null kill
Cc1cc(=O)[nH]c(-n2ncc(C#N)c2N)n1 | · | · | · | -19 | 3910 | 6 | ·
C=CCOc1ccc(Br)cc1CNC(C)(C)C | 0.2 | 10 | 9 | -6 | 2534 | -1 | -2
CCOc1cc(/C=C2/SC(=S)N(CC3CCCO3)C2=O)ccc1O (stereo not given) | 8.1 | 9 | 5 | -18 | 3444 | -4 | 20
COc1ccccc1N1CCN(/N=C/c2ccccc2C(=O)O)CC1 | · | · | · | -15 | 3352 | -1 | ·
CCOC(=O)CN1C(=O)S/C(=C/c2ccco2)C1=O | 6.4 | 15 | 10 | 14 | 3313 | -12 | 11
COc1cc(CC(=O)NC(c2ccccc2)c2ccccc2)cc(OC)c1OC | 4.3 | 3 | 6 | -11 | 3937 | 2 | 17
Cc1ccc(SCCC(=O)Nc2nccs2)cc1 | 3.9 | 11 | 6 | -27 | 5651 | -7 | 2
NC(=O)CN1C(=O)C(=O)N(Cc2ccc(F)cc2)C1=O | 2.4 | -5 | 1 | -13 | 3676 | -1 | 3
c1ccc(Oc2nc(-c3ccccn3)nc3ccccc23)cc1 | 2.5 | -3 | 5 | · | 4334 | 1 | -1
COc1ccc(CNC(=O)N2CCN(S(=O)(=O)c3ccccc3F)CC2)cc1 | -1.3 | 13 | -9 | -12 | 4010 | 10 | 5
CC1(C)Cc2c(sc(NC(=O)c3ccc(C(=O)c4ccccc4)cc3)c2C(N)=O)C(C)(C)N1 | 16 | 19 | 9 | -5 | 4859 | 13 | 4
CCN(C(=O)COC(=O)c1ccco1)c1c(N)n(Cc2ccccc2)c(=O)[nH]c1=O | 1.8 | 3 | -5 | -33 | 5063 | 4 | 4
COc1ccc(C(=O)NCc2ccc(Cl)c(Cl)c2)cc1OC | 3.5 | -4 | -3 | 7 | 2447 | 8 | -3
Cc1ccc(C(C)C)c(OCCCNCc2cccnc2)c1 | 3.1 | -2 | 2 | -16 | 3322 | 1 | -1
CCn1c(CNc2cccc(Cl)c2)nnc1SCc1ccccc1 | 4.8 | 10 | 14 | 3 | 9181 | 2 | 6
COCCNC(=O)/C(C#N)=C/c1c(N2CCN(c3ccccc3)CC2)nc2ccccn2c1=O | 3.2 | 13 | 11 | -16 | 3473 | -10 | 5
Cc1ccc(S(=O)(=O)N2CCCC2C(=O)Oc2ccccc2)cc1 (stereo not given) | 2.6 | -3 | 9 | -27 | 7955 | -2 | 4
Cc1ccc(Cn2c(=O)c3ccccc3n3nc(C)cc23)cc1 | 14 | 10 | 6 | -14 | 4299 | 10 | 6
CCOc1cc(NC(=O)c2ccco2)c(OCC)cc1NC(=O)COc1ccccc1 | 10 | 1 | 2 | -22 | 3627 | -2 | 0
Cc1ccc(C(=O)NCCN2C3=NCC(C)N3CC2Cc2ccc(O)cc2)cc1Br (stereo not given) | 0.0 | 2 | 6 | · | · | · | -9
COc1ccc(/C=C2/N=C(c3cccs3)OC2=O)cc1OC(C)C | · | · | · | -2 | 2536 | 6 | ·
O=C(O)CCC(=O)c1cccc2ccccc12 | 5.6 | 8 | 17 | -8 | 4719 | -4 | -2
Cc1cccc(NC(=O)CSCC(=O)Nc2cccc3ncccc23)c1 | 5.8 | -13 | -1 | -17 | 4754 | 4 | 7
Cc1ccc(N(CC(=O)NC2CCC(C)CC2)S(=O)(=O)c2cccnc2)cc1 (stereo not given) | 0.2 | · | · | -13 | 5289 | 8 | -6
Clc1ccc(-c2csc(-c3ccncc3)n2)cc1 | 1.3 | 5 | 2 | -52 | 4344 | -3 | 13
Cc1cccc(C(=O)N[C@H](C(=O)Nc2ccc(C)c(S(=O)(=O)N3CCOCC3)c2)C(C)C)c1 | -1.3 | 8 | 4 | -8 | 3433 | · | -2
O=C(NCc1ccccn1)C1CCCN(S(=O)(=O)c2ccc(Br)cc2)C1 (stereo not given) | 1.0 | · | · | -14 | 5024 | 11 | -3
COc1ccccc1NC(=O)c1ccc[n+]([O-])c1 | -0.1 | 7 | 4 | -60 | 3810 | 0 | 7
COc1ccc(CCNC(=O)C2CC(=O)N(CCc3ccc(C)cc3)C2)cc1OC (stereo not given) | 14 | 12 | 6 | -15 | 4142 | -17 | 5
Cc1[nH]c2ccccc2c1CC#N | 3.4 | -12 | -16 | -17 | · | 4 | 2
CC(=O)c1cc(F)ccc1OCC(=O)N1CCN(c2ccc(F)cc2)CC1 | -2.3 | 9 | 6 | -19 | 5194 | -6 | 11
CC(NC(=S)NC(=O)c1cccs1)c1ccccc1 (stereo not given) | -1.3 | 5 | -2 | 4 | 3047 | · | -49
CNC(=O)CCn1nc(-c2ccc(Cl)cc2)c2ccccc2c1=O | 19 | 2 | -5 | 9 | 2578 | 1 | 1
CCC(=O)NC1CC2CCCC(C1)N2Cc1ccc(C)cc1 (stereo not given) | 4.3 | 12 | 2 | -11 | 3865 | 1 | 5
O=C(Nc1nnc(Cc2ccccc2)s1)C1CCC1 | 3.9 | 2 | 5 | -11 | 3342 | -13 | 10
Clc1ccc(CO/N=C2\CCCc3nonc32)c(Cl)c1 | · | · | · | -23 | 10523 | 6 | ·
CC(=O)C1C(c2ccccc2)NC(=O)N(Cc2ccccc2)C1C (stereo not given) | 3.6 | 7 | 16 | · | · | · | 2
Cc1cc(NC(=O)CSc2nnc(C)c(=O)n2N)no1 | 8.4 | 12 | 5 | -12 | 4215 | -12 | 3
Cc1cc(C)c(S(=O)(=O)NCC2CCC(C(=O)NCCCN3CCOCC3)CC2)c(C)c1 (stereo not given) | 3.4 | · | · | -9 | 4947 | -1 | -11
